Source: PubChem
Bfl-1 A1 inh = inhibitors of the anti-apoptotic protein A1, read as caspase activation; MEF A1-2A-BIM cells, Caspase-Glo 3/7 luminescence, 3 h; percent of clofoctol response, vehicle zero; caspase activation, % (no concentration beside the values); actives 0.066% (n = 330,000); AID 2462;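 active means over half of replicate activation scores above 10%, or exactly half above 10 with the replicate mean above 10; inconclusive means replicate mean below 10 yet half the replicates above 10; inactive means over half of replicates below 10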;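 further: wells of about 30 µL received 50 nL stock; many hits fall short of the cut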
Ecoli growth = E. coli growth inhibition; OD600 absorbance (test concentration not listed); AID 1053175; actives 0.21% (n = 330,000); Escherichia coli growth, OD600, 23 h; active compounds read low;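 active means OD600 absorbance below the run mean of sample wells minus 3.6 SD, in any replicate, cut at about 0.56 in these data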;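 further: stock transfer was 300 nL into about 60 µL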
HNF4A DNA FP = change in binding of human HNF4 alpha to DNA. HNF4a-FITC DNA binding, fluorescence polarization, 1 h. activity change, % at 10 µM. actives 0.3% (n = 360,000). AID 1224865; in the data active means activity change above about 30%, passing the limit was not always enough;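 further: controls were the assay level and a saturating level of protein; the project sought stronger binding though the title names inhibitors; some compounds called inactive have numbers as strong as hits; positive values seem to mean higher polarization but the record does not say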
Target sequence (P41235 whole entry, looked up): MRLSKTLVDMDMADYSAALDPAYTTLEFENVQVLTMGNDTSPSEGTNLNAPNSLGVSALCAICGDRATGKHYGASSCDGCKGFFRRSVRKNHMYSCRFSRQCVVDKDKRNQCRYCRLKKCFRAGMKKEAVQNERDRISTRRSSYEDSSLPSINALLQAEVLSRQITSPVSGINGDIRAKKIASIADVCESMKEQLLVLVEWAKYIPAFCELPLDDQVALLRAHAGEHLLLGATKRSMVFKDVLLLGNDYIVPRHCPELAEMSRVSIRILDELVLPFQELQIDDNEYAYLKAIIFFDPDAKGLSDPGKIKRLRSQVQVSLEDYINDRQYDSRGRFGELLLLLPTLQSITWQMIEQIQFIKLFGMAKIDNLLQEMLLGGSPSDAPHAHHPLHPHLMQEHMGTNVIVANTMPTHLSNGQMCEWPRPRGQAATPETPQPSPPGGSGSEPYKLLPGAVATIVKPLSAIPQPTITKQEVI
Vif TR-FRET = inhibitors of Vif binding to APOBEC3G peptide, primary screen, biochemical, TR-FRET, GST-Vif 1-94, biotin-A3G peptide, dose response retest (AID 1117319) | actives 0.57% (n = 260,000) | TR-FRET GST-Vif / biotin-A3G peptide binding; higher % means a stronger effect; test concentration not given here; strong numbers were not always called active | one-dose inhibition, %; IC50 in µM for titrated hits;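 active means above the screen mean plus three standard deviations and confirmed in dose response; inconclusive means results disagree or hit not tested in dose response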;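 further: Vif residues 1-94 fused to GST binding biotinylated APOBEC3G peptide 110-148; 0% = full assay without inhibitor and 100% = GST in place of GST-Vif; retest series ran down from 100 µM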
B2AR ag = activates human beta-2 adrenergic receptor causing internalization. actives 0.43% (n = 340,000). response, % (no concentration beside the values). AID 504454. Am2.2-beta2AR cells, FAP receptor internalization, flow cytometry; reference of the scale not given here. P07550;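 active means response above a set limit, near 3 SD of response in nonfluorescent compounds, cut at about 42% in these data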;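 further: stock transfer was 100 nL into about 11 µL; a reference agonist was the positive control; negative values mostly stem from fluorescent compounds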
LANA-H2A inh = blocks KSHV LANA binding to histone H2A/H2B; cell-free LANA-H2A/H2B peptide, fluorescence polarization; actives 0.6% (n = 320,000); Q9QR71; AID 2629; inhibition, % (concentration not given with the values); in the data active means inhibition mostly above about 10%, no sharp cut-off; inactive means mostly below about 6.7%;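 further: stock transfer was 7.5 nL into about 10 µL; 0% = median of vehicle wells and 100% = median of positive control wells; one replicate is shown; the record names a cut of 25% in any replicate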
UCH37 inh = inhibitors of human deubiquitinating enzyme UCH37; Q9Y5K5; purified proteasome/UCH37, Ub-AMC cleavage fluorescence; inhibition, % (concentration not given with the values); actives 0.33% (n = 330,000);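 active means mean of two replicates above 20%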;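 further: 0% = compound-free wells with enzyme and 100% = wells lacking proteasome; stock transfer was 100 nL into about 20 µL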
Target sequence (Q9Y5K5 whole entry, looked up): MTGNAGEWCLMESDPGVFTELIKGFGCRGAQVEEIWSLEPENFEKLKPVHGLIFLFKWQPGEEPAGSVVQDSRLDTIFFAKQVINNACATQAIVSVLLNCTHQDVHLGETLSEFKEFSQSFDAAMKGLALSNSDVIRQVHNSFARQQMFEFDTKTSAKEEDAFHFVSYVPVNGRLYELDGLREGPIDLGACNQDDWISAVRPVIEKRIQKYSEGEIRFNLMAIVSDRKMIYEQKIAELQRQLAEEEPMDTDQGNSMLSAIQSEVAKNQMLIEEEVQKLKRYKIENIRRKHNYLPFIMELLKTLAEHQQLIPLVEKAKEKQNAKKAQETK
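Schedule: 30 min plus 25 min, room temperature / Material: human UCH37 within purified proteasomes / Technique: AMC fluorescence intensity at 355/460 nm / Buffer or medium: pH 7.4 Tris-HCl (50 mM) with ovalbumin, ATP-MgCl2, DTT / Controls: wells without proteasome as full block, compound-free enzyme plus substrate as uninhibited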
An asterisk follows results filed as active; i = inactive; ? = inconclusive; nt = not tested or not shown; & = joins results of further samples.

Every second line gives: Bfl-1 A1 inh	Ecoli growth	HNF4A DNA FP	Vif TR-FRET	B2AR ag	LANA-H2A inh	UCH37 inh
COc1ccc(CCN2C(=O)CC(Sc3ncccc3C(=O)O)C2=O)cc1OC (stereo not given)
→ 0.5	0.68	0.8	6%	-3	-0.5	2.6
COc1ccc(OC)c(CC(=O)Nc2cc(S(=O)(=O)N3CCCCC3)ccc2C)c1
→ 1.1	0.67	1.1	-7%	1	71*	2.0
Cc1ccc(C)c(S(=O)(=O)N2CCN(C(=O)c3ccc(N4CCCC4)c([N+](=O)[O-])c3)CC2)c1
→ -0.1	0.71	-1.7	nt	-11	-2.2	1.4
O=C(c1cc2ccccc2o1)N1CCN(Cc2ccccc2)CC1
→ -1.5	0.69	-0.8	nt	-6	2.7	0.0
NC(=O)c1c(NC(=O)CN2CCN(S(=O)(=O)c3ccccc3)CC2)sc2c1CCC2
→ 0.9	0.67	-3.2	10%	12	-2.3	-1.0
O=C(O)C1CCC(=O)N(C2CCCCC2)C1c1ccccc1Cl (stereo not given)
→ 0.9	0.66	-1.0	5%	1	-1.5	0.5
CCOC(=O)CSc1nnc2n(Cc3ccccc3)c(=O)c3c4c(sc3n12)CCC4
→ nt	0.73	0.9	-1%	-2	nt	3.7
CCN(C[C@H]1N[C@@](CC)(C(=O)OC)[C@H]2C(=O)N(Cc3ccccc3)C(=O)[C@@H]12)S(=O)(=O)c1ccc(C(F)(F)F)cc1
→ -1.9	0.72	0.7	9%	-9	-173	1.3
COc1ccc(Cl)cc1NC(=S)NCCO
→ 1.3	0.65	57*	nt	-4	1.4	1.8
COC(=O)c1ccc2c(=O)n(-c3ccc(OC)cc3)c(=S)[nH]c2c1
→ 2.3	0.7	0.9	3%	-4	-1.3	-0.8
c1ccc(C2=NNC(c3ccco3)=Nc3ccccc32)cc1
→ 0.3	0.67	3.6	6%	6	-1.9	5.3
CCOc1ccc(S(=O)(=O)Nc2cccc(Cl)c2)cc1
→ -0.2	0.67	-1.0	nt	-10	-0.6	2.5
CCN(C(=O)COC(=O)COc1ccc2c(c1)CCC2)c1c(N)n(Cc2ccccc2)c(=O)[nH]c1=O
→ nt	0.6	9.1	0%	6	nt	1.1
O=C(NCc1ccccn1)C1CC(c2ccc(F)cc2)=NO1 (stereo not given)
→ -0.1	0.69	3.6	-2%	-4	-6.5	-1.7
CC(OC(=O)Cc1ccc(Cl)cc1)C(=O)NC1CCCCC1C (stereo not given)
→ nt	0.62	-0.5	0%	-2	nt	0.1
CC(NC(=O)c1ccnc(C(C)(C)C)c1)c1ccccc1 (stereo not given)
→ -0.7	0.68	0.7	0%	0	-3.4	2.8
CCCN(CC(=O)Nc1ccccc1OC)C(=O)c1ccccn1
→ 0.4	0.65	1.9	-10%	-2	-1.6	-0.9
CCC(C)NC(=O)NC(=O)CSc1nnc(-c2ccccc2F)n1C1CC1 (stereo not given)
→ 0.7	0.72	1.3	nt	5	2.0	0.6
CNC(=S)N/N=C/C1=CCC2CC1C2(C)C (stereo not given)
→ 1.1	nt	3.6	4%	-13	-3.4	nt
CC(NC(=O)N1CCN(c2ccccc2F)CC1)c1ccc(F)c(F)c1 (stereo not given)
→ 0.5	0.61	-4.8	nt	-5	7.3	0.7
CC(OC(=O)CCN1C(=O)C2CC=CCC2C1=O)C(=O)Nc1cccc(Cl)c1 (stereo not given)
→ 0.1	0.68	-0.7	-6%	3	2.7	0.0
Cn1cccc1/C=N/NC(=O)C(O)c1ccccc1 (stereo not given)
→ 0.3	nt	-3.9	9%	3	-1.1	nt
Cc1cc(NC(=O)CSc2nc(C)c(C)n2CC(C)C)no1
→ 0.3	0.65	-3.3	6%	13	-5.1	1.8
Nc1nonc1C(=O)N/N=C/c1cc2c(cc1[N+](=O)[O-])OCO2
→ 0.3	nt	-3.2	nt	12	-1.1	nt
CCC(C)C1C(C#N)=C(N)Oc2n[nH]c(-c3ccccc3)c21 (stereo not given)
→ -0.5	0.7	-3.8	2%	-6	-2.3	3.4
N#Cc1cc(-c2ccccc2)nnc1Sc1ccccc1
→ 0.4	0.76	-4.2	0%	26	4.2	6.3
O=C(Oc1ccccc1C(=O)N1CCOCC1)c1cccc(Br)c1
→ -0.4	0.74	1.8	3%	2	5.0	2.0
COC(=O)c1ccc(C)c(NC(=O)c2c(-c3ccccc3)noc2C)c1
→ 0.2	0.72	0.7	-6%	-7	1.6	0.1
CCOC(=O)C1CCN(C(=O)c2ccco2)CC1
→ 1.1	0.75	-3.5	1%	0	-2.4	4.2
Cc1cccc(/C=N/NC(=O)Cc2ccc(Cl)cc2)c1O
→ 1.5	nt	-1.6	-2%	-5	-1.5	nt

The last 4 records of the section before open the next one.
Every second line gives: Bfl-1 A1 inh	Ecoli growth	HNF4A DNA FP	Vif TR-FRET	B2AR ag	LANA-H2A inh	UCH37 inh
O=C(Oc1ccccc1C(=O)N1CCOCC1)c1cccc(Br)c1
→ -0.4	0.74	1.8	3%	2	5.0	2.0
COC(=O)c1ccc(C)c(NC(=O)c2c(-c3ccccc3)noc2C)c1
→ 0.2	0.72	0.7	-6%	-7	1.6	0.1
CCOC(=O)C1CCN(C(=O)c2ccco2)CC1
→ 1.1	0.75	-3.5	1%	0	-2.4	4.2
Cc1cccc(/C=N/NC(=O)Cc2ccc(Cl)cc2)c1O
→ 1.5	nt	-1.6	-2%	-5	-1.5	nt
CC(C)CN1C(=O)c2ccc(NC(=O)c3ccco3)cc2C1=O
→ 0.0	0.71	6.1	1%	-13	-4.9	-16
NCCCC[C@H]1CNC(=O)C(=O)N1CCc1cccc(F)c1
→ 0.5	nt	1.4	nt	-6	1.0	2.3
COCCNC(=O)c1cc2cc3ccc(OC)cc3nc2o1
→ -0.5	0.65	4.9	-5%	1	-2.5	i
Cc1cc(=O)[nH]c(-c2ccccc2)n1
→ 0.7	0.74	-0.8	0%	7	-0.4	0.4
COc1ccccc1N(CC(=O)NCc1ccco1)S(=O)(=O)c1ccc(C)cc1
→ -0.7	0.67	-25	nt	3	-5.5	1.3
CCN(CC)CCn1c(NCc2ccc3c(c2)OCO3)nc2ccccc21
→ 0.4	0.7	1.5	-1%	25	0.3	4.2
Cc1c(C(=O)Nc2cccc(C(F)(F)F)c2)oc2ccc(S(=O)(=O)N3CCOCC3)cc12
→ -0.6	0.7	-1.3	-2%	31	-0.4	1.6
COc1ccc(-c2cc(C(=O)Nc3c(C)nn(Cc4ccccc4)c3C)no2)cc1
→ -0.2	0.73	-1.5	28%	1	2.5	2.2
O=C(Cn1ncc2c1-c1ccccc1OC2)N1CCN(Cc2ccc3c(c2)OCO3)CC1
→ 0.9	0.65	-0.2	4%	1	-1.3	1.1
O=C(CSc1nc(C2CC2)nc2ccccc12)N1c2ccccc2Sc2ccccc21
→ -0.3	0.68	-3.3	-7%	11	5.3	-1.0
CCOc1ccc(C2CC(=O)NC3=C2C(=O)CCC3)cc1 (stereo not given)
→ 0.7	0.71	2.4	10%	0	-3.7	0.6
Cc1coc2c(C)c3oc(=O)c(CCC(=O)NCCCN4CCCC4=O)c(C)c3cc12
→ -0.5	0.77	8.2	nt	-6	7.1	-32
COc1cccc(CNC(=O)C(c2ccc(Cl)cc2)C(C)C)c1 (stereo not given)
→ 0.3	0.68	-1.9	1%	-5	2.0	-0.7
O=C(Cn1c(=O)oc2cc(S(=O)(=O)N3CCCC3)ccc21)NCc1ccccn1
→ 0.7	0.77	2.0	?	9	5.9	2.4
CN(C)Cc1c[nH]c2nc[nH]c(=O)c12
→ nt	0.69	-3.6	-7%	2	nt	-4.8
NC(=O)c1ccccc1OCC(=O)N1CCCC1c1ccc2c(c1)OCCCO2 (stereo not given)
→ nt	0.69	-1.6	8%	0	nt	0.1
O=C(O)/C=C/c1cn(-c2ncc(C(F)(F)F)cc2Cl)c2ccccc12
→ 0.4	0.69	3.6	5%	-4	-0.2	7.0
COc1ccc(C2=Nn3c(nnc3-c3ccc(OC)cc3)SC2)cc1
→ -0.3	0.68	0.8	-6%&-3%	-2	-3.5	6.7
CCOC(=O)Nc1ccc(S(=O)(=O)Nc2onc(C)c2C)cc1
→ 0.7	0.66	6.3	nt	6	-1.5	2.6
CCC1CCCCN1S(=O)(=O)c1ccc([N+](=O)[O-])cc1 (stereo not given)
→ -0.4	0.68	-2.2	nt	5	0.4	4.2
CCN1/C(=C\C=C(C(C)=O)C(C)=O)Sc2ccccc21
→ -0.6	0.71	192	-7%	5	-70	39*
CC(C)COc1ccc(C(=O)N(Cc2ccco2)C2CCS(=O)(=O)C2)cc1 (stereo not given)
→ -0.7	0.67	0.8	-4%	2	-1.8	0.1
C/C(CC(=O)N1CCN(C=O)CC1)=N\NC(=O)c1cccc([N+](=O)[O-])c1
→ -0.5	nt	0.7	8%	3	-1.2	nt
Cc1c(C)n2c3c(cccc13)CC2
→ -0.2	0.65	2.8	3%	13	-4.7	0.7
COc1ccccc1OCCNC(=O)c1ccco1
→ 0.4	0.71	1.8	nt	9	-1.4	0.9
O=C(CCS(=O)(=O)c1ccccc1)Nc1nc(-c2ccccn2)cs1
→ -0.1	0.7	0.9	nt	-3	1.1	-1.6
CCOc1ccc(N(C)S(=O)(=O)c2cnc[nH]2)cc1
→ 0.5	0.7	-2.2	nt	0	2.1	-0.8
C=C(C)C(=O)N1CC2(CC(c3cccc(NC(=O)/C=C\C=C/C)c3)=NO2)C[C@H]1C(N)=O (stereo not given in full)
→ 0.4	nt	-14	6%	-3	1.9	2.7
Cc1nonc1N1CCN(Cc2cn[nH]c2-c2ccc3c(c2)OCO3)CC1
→ 0.7	0.67	-0.1	nt	0	1.7	1.9
O=C(COC(=O)c1cccc(Cl)c1)NC1CCCCCCC1
→ -0.1	0.67	-2.3	-9%	-7	8.6	2.5

(more compounds)
Every second line gives: Bfl-1 A1 inh	Ecoli growth	HNF4A DNA FP	Vif TR-FRET	B2AR ag	LANA-H2A inh	UCH37 inh
COCC(C)N=C1NN=C(c2c[nH]c3ccccc23)CS1 (stereo not given)
→ 0.8	0.69	-0.5	10%	4	-1.9	5.1
CCOC(=O)c1nc(C)nc(Sc2n[nH]c(-c3cc(C(F)(F)F)cc(C(F)(F)F)c3)n2)c1C
→ 0.2	0.68	1.7	?	10	-1.6	3.0
Cc1cccc(NS(=O)(=O)c2ccc(C)c(C(=O)NCC(c3cccs3)N(C)C)c2)c1 (stereo not given)
→ nt	0.67	1.0	6%	6	nt	-1.2
CCOC(=O)CN(C(=O)c1ccccc1[N+](=O)[O-])C(C)(C)C
→ -0.8	0.56	1.8	13%	4	-2.0	0.4
O=C(Cn1nc(C(F)(F)F)cc1C1CC1)NCc1ccccc1F
→ 0.2	0.71	4.2	-4%	-4	-0.4	2.8
O=C(COC(=O)c1ccco1)NCc1ccc(Cl)cc1
→ 0.7	0.68	-0.5	-14%	3	-3.2	2.3
O=C(CNC(=O)[C@@H]1Cc2ccccc2CN1)Nc1ccc2c(c1)OCO2
→ -1.4	0.67	-2.1	1%	9	-1.4	1.8
COc1ccc(NC(=O)CCCC(=O)OCC(=O)c2cccc(OC)c2)cc1
→ 0.5	0.59	1.3	-16%	6	-1.1	1.0
O=C(NC1=NCCS1)c1cccc(Br)c1
→ -2.8	0.63	-1.8	nt	-6	-6.5	-0.4
CC(C)=CCc1c(O)ccc2c1OC(c1ccc(O)c(O)c1)CC2=O (stereo not given)
→ -0.4	0.69	1.8	30%	5	-3.3	0.9
